Source: PubChem
Methyltransferases: Primary Screen for Target Class Profiling of Small Molecule Inhibitors of Methyltransferases; purified enzyme, MTase-Glo SAH luminescence; hits give low values; calls only at 40 µM; 25,000 compounds, 3.9% hits; AID 1745853, 2022; active = -50% or lower on at least one of six enzymes; inconclusive = the cases between; inactive = as a rule above -30% on all six;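 further: enzymes were COMT GAMT GNMT HNMT NNMT and PNMT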
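Each enzyme was reacted with SAM and its substrate, with compounds tested once at 40 uM; SAH formed was read by MTase-Glo luminescence.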
Calls only; i = inactive; u = inconclusive; + = active, no number. On the % scale 0 is the no-effect control and ±100 the full control effect. This is a subset; the hit share may differ from the screen's.

The opening 3 records (preview)
SMILES	Methyltransferases
COc1cc2c(cc1OC)CN(CCc1ccc(NC(=O)c3cccc4c(=O)c5cccc(OC)c5[nH]c34)cc1)CC2	+
COC(=O)C1=CO[C@@H](O[C@@H]2O[C@H](CO)[C@@H](O)[C@H](O)[C@H]2O)C2C1CC(O)C2C (some centres undefined)	u
Cc1[nH]c(/C=C2\C(=O)Nc3ccc(F)cc32)c(C)c1C(=O)NC[C@H](O)CN1CCOCC1	i

Main list, previewed entries included:
SMILES	Methyltransferases
COc1cc2c(cc1OC)CN(CCc1ccc(NC(=O)c3cccc4c(=O)c5cccc(OC)c5[nH]c34)cc1)CC2	+
COC(=O)C1=CO[C@@H](O[C@@H]2O[C@H](CO)[C@@H](O)[C@H](O)[C@H]2O)C2C1CC(O)C2C (some centres undefined)	u
Cc1[nH]c(/C=C2\C(=O)Nc3ccc(F)cc32)c(C)c1C(=O)NC[C@H](O)CN1CCOCC1	i
O=C1CCc2cc(OCCCCc3nnnn3C3CCCCC3)ccc2N1	i
NC(=O)c1c(OCc2c(F)cc(Br)cc2F)nsc1NC(=O)NCCCCN1CCCC1	i
COc1ccc(Cl)c(Nc2ncnc3cc(OCC4CCN(C)CC4)c(OC)cc23)c1	u
CNS(=O)(=O)CC1CCC(N(C)c2ncnc3[nH]ccc23)CC1 (centres undefined)	+
Cc1ccccc1C(C(=O)NC1CCCCC1)N(C(=O)Cn1ccnc1C)c1cccc(F)c1 (centres undefined)	i
CCS(=O)(=O)N1CCN(c2ccc(Nc3ncc(C(N)=O)c(NC4CC4)n3)cc2)CC1	+
COc1ccc(C#Cc2ccc(C(=O)N3CCC[C@@H](CO)C3)cc2)cc1	i
O=C(O)c1n[nH]c2c1C[C@H]1C[C@@H]21	i
Cc1[nH]c(/C=C2\C(=O)Nc3ccc(F)cc32)c(C)c1C(=O)NCCN1CCCC1	u
C[C@H](NCc1ccc(OCc2ccccc2F)cc1)C(N)=O	i

An excerpt from above in order of heavy-atom count, largest number first:
SMILES	Methyltransferases
Cc1[nH]c(/C=C2\C(=O)Nc3ccc(F)cc32)c(C)c1C(=O)NCCN1CCCC1	u
COC(=O)C1=CO[C@@H](O[C@@H]2O[C@H](CO)[C@@H](O)[C@H](O)[C@H]2O)C2C1CC(O)C2C (some centres undefined)	u
O=C(O)c1n[nH]c2c1C[C@H]1C[C@@H]21	i
